Source: PubChem BioAssay
MLL AF4-AF9 inh: inhibitors of AF4 peptide binding to AF9, primary screen, biochemical, AlphaScreen, biotin-AF4 peptide, FLAG-AF9, single point | AID 651704, 2012 | inhibition, % at 10 µM | 0.47% of 350,000 active;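 active = every replicate reaching a set inhibition limit, whatever the replicate mean, cut at about 25% in these data; inconclusive = mean inhibition reaches that limit but some replicates miss it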;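 also: 0% = plate neutral control median and 100% = total signal loss; the record names both 10 and 1 µM as test concentration; the first replicate is given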
Target sequence (P42568 whole entry, looked up): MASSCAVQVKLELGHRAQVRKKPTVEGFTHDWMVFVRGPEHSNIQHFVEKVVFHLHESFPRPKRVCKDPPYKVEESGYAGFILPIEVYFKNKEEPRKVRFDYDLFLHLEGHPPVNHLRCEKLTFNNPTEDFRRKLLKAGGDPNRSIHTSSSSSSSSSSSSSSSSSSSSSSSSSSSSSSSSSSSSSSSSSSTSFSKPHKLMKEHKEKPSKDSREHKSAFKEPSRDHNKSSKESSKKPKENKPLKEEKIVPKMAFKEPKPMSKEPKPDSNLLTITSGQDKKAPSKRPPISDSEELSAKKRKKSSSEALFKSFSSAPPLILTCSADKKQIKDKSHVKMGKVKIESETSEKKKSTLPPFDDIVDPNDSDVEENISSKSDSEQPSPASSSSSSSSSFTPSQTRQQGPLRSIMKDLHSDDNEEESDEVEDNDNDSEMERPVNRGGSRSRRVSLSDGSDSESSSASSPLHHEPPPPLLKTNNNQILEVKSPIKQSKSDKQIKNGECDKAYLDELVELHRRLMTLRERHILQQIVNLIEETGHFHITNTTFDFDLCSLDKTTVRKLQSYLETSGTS
Beta apoptosis: inhibitors of cytokine-induced beta cell apoptosis, primary screen, luminescence; INS-1E cytokine-induced death, ATP luminescence, 48 h; percent of positive-control rescue, neutral wells zero; protection from apoptosis, % (test concentration not listed); 0.8% of 300,000 active;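 active = all replicates at 75% or more, or half of them and the mean; inconclusive = half reach 75% but not the mean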;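 also: 0% = cytokine-treated negative control wells and 100% = positive control rescue; higher means more ATP so stronger rescue from cytokine killing; wells of about 40 µL received 100 nL stock; the first replicate is given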
RanGTP-Impb inh: inhibitors of RanGTP-importin-beta interaction, primary screen, biochemical, FRET, CFP-Ran, YFP-importin-beta, homogeneous; Ran GTPase (GTP-bound) - importin-beta complex; cell-free CFP-Ran/YFP-importin-beta FRET ratio; 1.1% of 300,000 active; inhibition, % (test concentration not listed); AID 2216, 2009;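 active = most replicates above 15%; inconclusive = exactly half above 15%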;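 also: 0% = DMSO wells and 100% = Ran loaded with GDP instead of GTP; wells of about 40 µL received 100 nL stock; the first replicate is given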
T cruzi inh: inhibitors of intracellular T. cruzi growth, primary screen, luminescence, NIH3T3 host cells | T. cruzi beta-gal in NIH3T3, 90 h | inhibition, % (no concentration beside the values) | 1.4% of 300,000 active;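 active = mean inhibition across valid replicates above about 55%, limit read from the data; inconclusive = mean below that limit but half or more replicates reach it; inactive = mean below it, under half of replicates reach it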;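 also: signal also drops with host cell toxicity which is not excluded here; 0% = plate median of DMSO wells and 100% = zero luminescence signal; higher percent means less beta-gal luminescence so fewer parasites; stock transfer was 50 nL into about 50 µL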
Calb FLC: C. albicans growth inhibition with fluconazole, primary screen, CaCi-2 strain, Alamar Blue fluorescence. C. albicans CaCi-2 (fluconazole-resistant clinical isolate) + fluconazole, 48 h. growth inhibition, % (test concentration not listed). AID 1979, 2009. 0.57% of 300,000 active;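 active = most replicates above 75%; inconclusive = exactly half above 75%; inactive = most below 75%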;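 also: all wells also contain fluconazole at 8 µg/ml as a sub-toxic cotreatment; 0% = median of DMSO wells and 100% = median of geldanamycin control wells; wells of about 8 µL received 7.5 nL stock; the first replicate is given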
rRNA inh HTS: reduced GFP signal of wild-type E. coli, primary screen, bacterial rRNA inhibitor project, GFP/RFP fluorescence, OD600, single point. E. coli WT GFP vs humanized-ribosome RFP mutants, 24 h; stronger effect = lower value; DMSO median 0, no signal -100. GFP signal change (wild-type ribosome), % (concentration not given with the values). 1.6% of 350,000 active;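 active = significant combined selectivity score with lowered wild-type GFP, culture density cut under 30%, mutant RFP and density less affected; inactive = any of these conditions unmet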; also: one replicate is shown; some compounds called inactive have numbers as strong as hits
FGF22 binding: binders of human FGF22 protein, primary screen, FGF22 synaptogenesis inhibitor project, biophysical, thermal shift, single point; recombinant FGF22 thermal shift, SYPRO orange fluorescence; percent of sucrose octasulfate shift, DMSO zero; calls only at 9.99 µM; 1.5% of 340,000 active; AID 651658, 2012;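 active = melting point raised past a set limit in the mean and every replicate; inconclusive = no clear call; three in four hits are not shown here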
Target sequence (Q9HCT0 whole entry, looked up): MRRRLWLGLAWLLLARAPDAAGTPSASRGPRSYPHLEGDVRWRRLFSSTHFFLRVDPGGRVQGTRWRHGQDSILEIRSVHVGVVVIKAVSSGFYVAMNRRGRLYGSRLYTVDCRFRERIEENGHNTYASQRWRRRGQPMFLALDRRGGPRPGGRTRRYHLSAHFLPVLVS
ALR H2O2 inh: inhibitors of human ALR sulfhydryl oxidase, primary screen, biochemical, H2O2 detection, HRP-luminol luminescence, single point | 3.8% of 290,000 active | inhibition, % (test concentration not listed) | FAD-linked sulfhydryl oxidase ALR (Homo sapiens), P55789 | purified ALR, DTT oxidation;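 active = mean and each replicate at 75% or more; inconclusive = only one of the two met; inactive = neither met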;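 also: stock transfer was 7.5 nL into about 7.5 µL; 0% = neutral wells and 100% = wells with inactivated enzyme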
Target sequence (P55789 whole entry, looked up): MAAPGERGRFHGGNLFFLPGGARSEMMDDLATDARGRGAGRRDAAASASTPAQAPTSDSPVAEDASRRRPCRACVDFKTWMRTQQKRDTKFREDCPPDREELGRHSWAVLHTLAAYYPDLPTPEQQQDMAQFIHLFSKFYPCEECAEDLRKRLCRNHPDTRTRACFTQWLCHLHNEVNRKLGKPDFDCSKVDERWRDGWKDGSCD
rRNA inh HTS OD600: second read-out of rRNA inh HTS, no call of its own (marks repeat the call); OD600 change, %; measured here: OD600 growth;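 optical density of the mix in the first replicate; 0 = DMSO median and -100 = no signal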
rRNA inh HTS RFP: also measured in rRNA inh HTS; calls as there; RFP signal change, %; measured here: RFP humanized mutant strains;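 first replicate; 0 = DMSO median and -100 = no signal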
Active calls of the source: *; i = inactive; ? = inconclusive; . = not tested or not shown. This is a subset; rates above refer to the full screens.

Compound	MLL AF4-AF9 inh	Beta apoptosis	RanGTP-Impb inh	T cruzi inh	Calb FLC	rRNA inh HTS	rRNA inh HTS OD600	rRNA inh HTS RFP	FGF22 binding	ALR H2O2 inh
CC1CCC(NC(=O)CCn2ccc3cc(S(=O)(=O)N4CCCC4)ccc32)CC1 (stereo not drawn)	1.1	-4	0.0	0	-5	-2	-15	-1.7	i	4
CC(C)(C)c1csc(NC2=NS(=O)(=O)c3ccccc32)n1	-0.4	12	-0.5	-11	12	-9	-5	0.4	i	-2
CCN1CCN(CCCNC(=O)C2CCN(c3nnc(-n4c(C)ccc4C)s3)CC2)CC1	12	-18	5.9	-12	-4	13	13	2.4	i	5
COc1ccc(C(C[N+](=O)[O-])c2c(-c3ccccc3)cc3ccccn23)cc1OC (stereo not drawn)	.	1	-1.8	-9	11	.	.	.	.	9
O=C(CNC(=O)c1cccs1)OCC(=O)c1ccc([N+](=O)[O-])cc1	-6.8	-4	-0.4	4	5	9	9	2.5	i	?
CNC(=O)NC(=S)NC(=O)c1ccc(OC)cc1	.	-3	4.4	-2	-7	.	.	.	.	.
Fc1cccc(CNc2ncnc3cc(Cl)ccc23)c1F	-1.3	26	1.6	13	22	-40	-58	2.1	i	-4
Cc1ccc(S(=O)(=O)N2CCCCC2CCNC(=O)C(=O)NCc2cccnc2)cc1 (stereo not drawn)	1.1	7	7.4	9	-2	10	6	-0.9	.	-34
CCOC(=O)C1=C(C)N=c2s/c(=C/c3cccc([N+](=O)[O-])c3O)c(=O)n2C1c1ccc(OC)cc1OC (stereo not drawn)	-3.3	.	0.0	26	-8	0	-2	3.7	i	-14
COc1ccc(CN(C)C(=O)COC(=O)c2ccc3c(c2)OCO3)cc1OC	.	-8	5.9	-10	-2	.	.	.	.	26
CC1(C)CC2CC(C)(CN2Cc2c(O)ccc3ccccc23)C1 (stereo not drawn)	-0.2	-5	3.2	-14	42	-19	-41	1.9	i	95*
Cc1cc(-c2ccccc2)nc2cc(C(=O)NCCCn3ccnc3)nn12	.	3	-1.9	0	-3	.	.	.	.	43
O=C(CSc1nc(-c2ccccc2)cc(C(F)(F)F)n1)c1cccc([N+](=O)[O-])c1	-2.7	10	-2.0	44	-9	.	.	.	i	.
COc1cc(/C=N\Nc2nc3ccccc3[nH]2)cc(OC)c1OC	.	12	0.9	35	0	.	.	.	.	99*
CCOC(=O)C1C2C=CC(CC2)N1c1ccccc1 (stereo not drawn)	-1.1	-3	-1.2	-1	-2	10	22	-4.5	i	1
CC1CCCC(C)N1C(=O)c1cc(-c2ccc3c(c2)OCO3)on1 (stereo not drawn)	-1.3	5	2.4	-2	-24	-16	-9	-2.2	i	.
O=C(COc1ccc(C2SCCS2)cc1)NNC(=O)C(Cl)Cl	-0.3	-1	-2.3	.	0	9	13	4.1	i	-26
CC1(C)NC(=O)N(CC(=O)OCC(=O)Nc2cccc(S(N)(=O)=O)c2)C1=O	2.3	-5	1.9	-7	19	8	8	-0.9	i	-8
COCCN(C(=O)CSc1ncc(C(F)(F)F)cc1Cl)c1c(N)n(Cc2ccccc2)c(=O)[nH]c1=O	0.1	-2	?	0	-18	7	2	2.1	i	0
O=C(NCC(=O)N1CCN(C(c2ccccc2)c2ccccc2)CC1)c1ccc(Br)o1	2.0	-2	3.1	-1	4	0	-33	-2.3	i	4
O=C(O)CCCNS(=O)(=O)c1ccc2ccccc2c1	.	-2	-0.5	0	32	.	.	.	.	-16
Cc1cc(C)cc(N2C(=O)CSC2c2cccs2)c1 (stereo not drawn)	.	-6	-1.1	12	-2	.	.	.	.	-1
Cc1ccc(-c2cc(C(=O)Nc3cnn(C45CC6CC(CC(C6)C4)C5)c3)no2)cc1	6.8	5	-0.4	13	0	-2	10	5.6	i	.
C/C(=N\NC(=O)c1cc(C(C)C)[nH]n1)c1ccncc1	-4.3	-7	3.0	-9	10	3	4	1.0	i	.
Clc1cncc(Cl)c1N/N=C/c1ccccc1	-8.4	-2	3.3	18	16	-19	-12	-7.0	i	-5

The results go on.
Compound	MLL AF4-AF9 inh	Beta apoptosis	RanGTP-Impb inh	T cruzi inh	Calb FLC	rRNA inh HTS	rRNA inh HTS OD600	rRNA inh HTS RFP	FGF22 binding	ALR H2O2 inh
Cc1occc1C(=O)Nc1nnc(-c2ccncc2)s1	.	-2	-1.3	-11	38	.	.	.	.	-14
Cc1ccc(C(=O)NC(=S)Nc2ccc(N3CCOCC3)cc2)cc1C	-5.4	-3	0.5	1	61	4	2	4.9	i	12
CCOc1ccc2[nH]cc(C(=O)N3CCN(C4CCCCC4)CC3)c(=O)c2c1	.	1	?	-16	11	.	.	.	.	-1
CC(C)(C)OC(=O)NCCCCC1=CC2=CC(=O)C(C)(O)C(=O)C2=CO1 (stereo not drawn)	-4.2	0	-4.2	-6	1	9	25	18	i	.
Cc1nn2c3c(cnc2c1-c1ccc(Cl)cc1)C(=O)CC(c1ccco1)C3 (stereo not drawn)	.	10	19*	9	-3	.	.	.	.	42
Cc1n[nH]c(C)c1Sc1ccccc1N=Cc1cc([N+](=O)[O-])ccc1O	.	2	-4.5	2	46	.	.	.	.	-4
Cc1nn(-c2ccccc2)c(Cl)c1/C=N/N1CCN(c2ccccn2)CC1	-4.9	3	-3.0	-16	?	-6	-1	-1.9	i	40
Cc1cc(=O)[nH]c(SCC(=O)NCC2CCCO2)n1 (stereo not drawn)	-3.2	0	2.0	-8	18	6	6	-2.6	i	-4
O=C(NC(=S)Nc1ccc2oc(-c3ccncc3)nc2c1)c1ccccc1F	0.5	-5	-4.4	6	2	14	11	0.0	.	-18
N#CC1=C(N)Oc2n[nH]c(-c3ccccc3)c2C12C(=O)Nc1ccccc12 (stereo not drawn)	.	-7	-0.2	7	31	.	.	.	.	-12
COc1ccccc1-n1cnnc1SCC(=O)Nc1cccnc1Cl	-0.9	-1	-5.6	-8	-18	6	-1	-0.5	i	2
O=C(N/N=C(/CC(=O)c1cccs1)C(F)(F)F)c1ccc(O)cc1	.	.	2.5	-29	20	.	.	.	.	80*
COc1ccccc1/C=C/C=N/n1c(-c2ccccn2)n[nH]c1=S	-2.3	2	2.3	-6	4	-6	-3	-1.0	i	.
Cc1cc(C)c(NC(=O)COc2nc3ccccc3nc2C)c(C)c1	0.3	1	-1.3	-26	?	16	20	-1.9	i	7
S=c1[nH]nc(Cc2ccccc2)n1-c1ccc(Cl)cc1	-4.4	4	-1.7	13	17	-11	-14	1.0	i	58
C1CC(CN2CCOCC2)CN(c2nc3nonc3nc2N2CCSCC2)C1 (stereo not drawn)	3.0	-3	?	10	-4	3	1	-4.1	i	-2
O=C(CN1CCN(S(=O)(=O)c2ccc(Br)s2)CC1)N1CCCCC1	0.5	4	.	.	.	-6	-1	5.6	i	.
O=C1/C(=C/c2cccnc2)SC(=S)N1NS(=O)(=O)c1ccccc1	-0.6	-2	-0.6	-3	22	10	5	2.2	i	0
C/C(=N\NC(=O)CC1(C)OCCO1)c1cccs1	.	-11	3.8	-10	-10	.	.	.	.	1
CCNC(=O)CSc1nnc(-c2cc(-c3ccc(Cl)cc3)nc3ccccc23)o1	-54	.	1.3	-12	36	2	-3	-5.7	i	-3
CCOc1cc(Cl)c(S(=O)(=O)NCCCN2CCOCC2)cc1Cl	-1.6	-5	3.2	-16	-3	4	2	0.8	i	.
CC(=O)Nc1ccc(S(=O)(=O)NCCc2ccc(S(N)(=O)=O)cc2)cc1	.	2	-0.3	6	25	.	.	.	.	-6
CC(C)(C)c1cnnn1-c1ccc(C(=O)CCl)cc1	.	-12	7.7	-9	-5	.	.	.	.	2
O=C(COC(=O)c1ccccc1OCc1ccccc1Cl)NCC1CCCO1 (stereo not drawn)	0.0	-2	.	.	.	-29	-25	-2.2	i	-13
CCN(CC(=O)NCc1ccco1)S(=O)(=O)c1ccc(F)cc1	-3.2	-2	2.6	7	-6	2	-1	3.4	i	0

(listing goes on)
Compound	MLL AF4-AF9 inh	Beta apoptosis	RanGTP-Impb inh	T cruzi inh	Calb FLC	rRNA inh HTS	rRNA inh HTS OD600	rRNA inh HTS RFP	FGF22 binding	ALR H2O2 inh
CCOC(=O)Cn1c(=O)c2c(nc(Br)n2Cc2ccc(Cl)cc2)n(C)c1=O	.	6	2.3	8	-1	.	.	.	.	0
CC(C)[C@H](NC(=O)c1cccc(CN(Cc2ccccc2)C(=O)/C=C/c2ccccc2)c1)C(=O)O	-8.6	3	7.6	-9	7	-5	-5	-0.6	.	.
Cc1nn(Cc2ccc(Cl)c(Cl)c2)c(C)c1NC(=O)c1noc2c1CCCCC2	.	20	2.0	23	-4	.	.	.	.	0
Cc1cccc(C(C)C)c1NC(=O)c1ccc(COc2ccc3c(C)cc(=O)oc3c2)cc1	0.3	14	0.3	42	-2	18	15	2.1	i	3
COCCN(CCOC)C(=O)C1CCN(c2ccc(S(=O)(=O)N3CCOCC3)cc2[N+](=O)[O-])CC1	14	1	.	16	-5	6	7	-1.2	i	0
CCOc1ccc(OCC(=O)Nc2ccccc2N2CCCC2)cc1	6.9	-4	-3.0	17	4	-26	-48	5.1	i	22
N=c1oc2ccc(Br)cc2cc1C(=O)NC1CCCCCC1	-3.1	1	-2.7	7	-6	-3	-11	2.1	i	-3
Cc1cc(NC(=O)CN2CCc3ccccc3C2)nc2c1c(=O)oc1ccccc12	3.0	.	11	9	-8	9	4	12	i	-1
O=C(Cn1cnc([N+](=O)[O-])c1)NCc1ccc(F)cc1	.	-8	-3.3	7	1	.	.	.	.	-4

Structures shown so far that have bromine:
Compound	MLL AF4-AF9 inh	Beta apoptosis	RanGTP-Impb inh	T cruzi inh	Calb FLC	rRNA inh HTS	rRNA inh HTS OD600	rRNA inh HTS RFP	FGF22 binding	ALR H2O2 inh
O=C(NCC(=O)N1CCN(C(c2ccccc2)c2ccccc2)CC1)c1ccc(Br)o1	2.0	-2	3.1	-1	4	0	-33	-2.3	i	4
O=C(CN1CCN(S(=O)(=O)c2ccc(Br)s2)CC1)N1CCCCC1	0.5	4	.	.	.	-6	-1	5.6	i	.
CCOC(=O)Cn1c(=O)c2c(nc(Br)n2Cc2ccc(Cl)cc2)n(C)c1=O	.	6	2.3	8	-1	.	.	.	.	0
N=c1oc2ccc(Br)cc2cc1C(=O)NC1CCCCCC1	-3.1	1	-2.7	7	-6	-3	-11	2.1	i	-3
